# Beta cell apopt – beta cell apoptosis inhibition | INS-1E cytokine-induced death, ATP luminescence, 48 h; percent of positive-control rescue, neutral wells zero | protection from apoptosis, % (concentration not given with the values) | 0.8% of 300,000 active | AID 435005;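 active means all replicates at 75% or more, or half of them and the mean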;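 further: 0% = cytokine-treated negative control wells and 100% = positive control rescue; higher means more ATP so stronger rescue from cytokine killing; wells of about 40 µL received 100 nL stock; the first replicate is given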
# E coli growth – inhibitors of Escherichia coli growth; OD600, 23 h; hits give low values; OD600 absorbance (test concentration not listed); 0.21% of 330,000 active;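 active means OD600 absorbance below the run mean of sample wells minus 3.6 SD, in any replicate, cut at about 0.56 in these data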;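 further: stock transfer was 300 nL into about 60 µL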
# T cruzi repl – T. cruzi replication inhibition. T. cruzi beta-gal in NIH3T3, luminescence, 90 h. inhibition, % (no concentration beside the values). 1.4% of 300,000 active;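 active means mean inhibition across valid replicates above about 55%, limit read from the data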;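 further: signal also drops with host cell toxicity which is not excluded here; 0% = plate median of DMSO wells and 100% = zero luminescence signal; higher percent means less beta-gal luminescence so fewer parasites; stock transfer was 50 nL into about 50 µL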
# FGF22 binding – binders of recombinant human FGF22 by thermal shift; Q9HCT0; SYPRO orange fluorescence; percent of sucrose octasulfate shift, DMSO zero; calls only at 9.99 µM; 1.5% of 340,000 active; AID 651658;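 active means melting point raised past a set limit in the mean and every replicate; three in four hits are not shown here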
# Target sequence (Q9HCT0 whole entry, looked up): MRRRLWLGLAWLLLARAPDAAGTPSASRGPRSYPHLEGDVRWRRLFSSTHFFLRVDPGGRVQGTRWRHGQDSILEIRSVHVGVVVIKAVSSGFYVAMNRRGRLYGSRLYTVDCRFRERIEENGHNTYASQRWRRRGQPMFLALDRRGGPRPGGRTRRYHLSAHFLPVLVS
# Bfl-1 A1 inh – inhibitors of the anti-apoptotic protein A1, read as caspase activation; MEF A1-2A-BIM cells, Caspase-Glo 3/7 luminescence, 3 h; percent of clofoctol response, vehicle zero; 0.066% of 330,000 active; caspase activation, % (test concentration not listed);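 active means over half of replicate activation scores above 10%, or exactly half above 10 with the replicate mean above 10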;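 further: wells of about 30 µL received 50 nL stock; many hits fall short of the cut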
# AF4-AF9 inh – inhibitors of human MLL-AF4/AF9 interaction. P42568. AlphaScreen, biotin-AF4 peptide binding to FLAG-AF9. inhibition, % at 10 µM. 0.47% of 350,000 active. AID 651704;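 active means every replicate reaching a set inhibition limit, whatever the replicate mean, cut at about 25% in these data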;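 further: 0% = plate neutral control median and 100% = total signal loss; the record names both 10 and 1 µM as test concentration; the first replicate is given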
# Target sequence (P42568 whole entry, looked up): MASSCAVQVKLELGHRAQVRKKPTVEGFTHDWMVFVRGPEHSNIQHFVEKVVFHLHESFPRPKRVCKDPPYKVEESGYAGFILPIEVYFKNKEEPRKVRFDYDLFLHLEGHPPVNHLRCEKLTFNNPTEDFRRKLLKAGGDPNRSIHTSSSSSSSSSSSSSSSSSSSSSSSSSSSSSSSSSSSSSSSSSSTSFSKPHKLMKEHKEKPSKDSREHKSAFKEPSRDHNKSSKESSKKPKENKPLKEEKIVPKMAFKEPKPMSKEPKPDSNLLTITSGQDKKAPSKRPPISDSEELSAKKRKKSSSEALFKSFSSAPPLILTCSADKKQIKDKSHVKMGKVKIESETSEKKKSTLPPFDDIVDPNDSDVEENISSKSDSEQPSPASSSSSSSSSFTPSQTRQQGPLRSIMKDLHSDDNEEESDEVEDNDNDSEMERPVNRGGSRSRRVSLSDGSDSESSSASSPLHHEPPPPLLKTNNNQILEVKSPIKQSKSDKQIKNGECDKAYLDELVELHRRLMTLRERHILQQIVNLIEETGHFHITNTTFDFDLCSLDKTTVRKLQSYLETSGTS
# rRNA inh HTS – inhibits bacterial ribosomal RNA function over humanized ribosomes; AID 720706; 1.6% of 350,000 active; E. coli WT GFP vs humanized-ribosome RFP mutants, fluorescence, 24 h; hits give low values; DMSO median 0, no signal -100; GFP signal change (wild-type ribosome), % (test concentration not listed);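 active means significant combined selectivity score with lowered wild-type GFP, culture density cut under 30%, mutant RFP and density less affected; inactive means any of these conditions unmet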; further: one replicate is shown; some compounds called inactive have numbers as strong as hits
# UCH37 DUB inh – inhibitors of human deubiquitinating enzyme UCH37; Q9Y5K5; purified proteasome/UCH37, Ub-AMC cleavage fluorescence; inhibition, % (no concentration beside the values); 0.33% of 330,000 active; AID 588478;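 active means mean of two replicates above 20%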;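 further: 0% = compound-free wells with enzyme and 100% = wells lacking proteasome; stock transfer was 100 nL into about 20 µL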
# Target sequence (Q9Y5K5 whole entry, looked up): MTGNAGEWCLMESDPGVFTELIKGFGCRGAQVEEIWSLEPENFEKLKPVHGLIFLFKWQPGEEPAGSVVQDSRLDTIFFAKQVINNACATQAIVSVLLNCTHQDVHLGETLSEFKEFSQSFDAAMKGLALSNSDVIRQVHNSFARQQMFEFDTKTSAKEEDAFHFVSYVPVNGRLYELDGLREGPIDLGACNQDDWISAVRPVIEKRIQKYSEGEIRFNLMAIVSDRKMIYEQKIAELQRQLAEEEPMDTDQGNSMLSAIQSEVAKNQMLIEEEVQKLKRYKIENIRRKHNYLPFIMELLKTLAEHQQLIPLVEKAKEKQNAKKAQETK
#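 Test system – human UCH37 enzyme supplied as purified proteasome complex · Incubation – 30 min preincubation with enzyme, 25 min cleavage at room temperature · Detection – AMC fluorescence from Ub-AMC cleavage, excitation 355 nm, emission 460 nm · Benchmarks – no-proteasome wells (full inhibition) and compound-free wells (no inhibition)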
# rRNA inh HTS OD600 – second read-out of rRNA inh HTS, no call of its own (marks repeat the call); OD600 change, %; measured here: OD600 growth;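 optical density of the mix in the first replicate; 0 = DMSO median and -100 = no signal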
# rRNA inh HTS RFP – also measured in rRNA inh HTS; calls as there; RFP signal change, %; measured here: RFP humanized mutant strains;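 first replicate; 0 = DMSO median and -100 = no signal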
# * hit, by the source's call; i = inactive; x = not tested or not shown.
SMILES,Beta cell apopt,E coli growth,T cruzi repl,FGF22 binding,Bfl-1 A1 inh,AF4-AF9 inh,rRNA inh HTS,rRNA inh HTS OD600,rRNA inh HTS RFP,UCH37 DUB inh
COc1ccc(-c2nnc(CSc3nc4ccccc4c(=O)n3CC(C)C)o2)cc1OC,10.4,0.711,10.4,i,0.7,-0.7,-13.1,-7.2,1.9,6.6
Cc1ccc(NC(=O)OCc2cc(-c3ccccc3)on2)cc1,-2.2,0.686,10.6,i,-1.7,-0.8,9.5,23.9,2.2,1.9
CCN1CCN(C(CNS(=O)(=O)c2ccc(Cl)cc2)c2cccnc2)CC1 (stereo not given),3.0,0.648,25.6,i,0.5,-4.6,9.3,11.9,0.4,-1.5
Cc1ccc(C(=O)Nc2c3c(nn2-c2ccccc2)CS(=O)(=O)C3)cc1C,4.1,0.7,0.6,i,-0.8,-0.8,-2.1,-0.7,-0.6,0.7
CN1CCN(S(=O)(=O)c2ccccc2)CC1,-5.1,0.681,-7.6,i,0.8,3.1,2.9,13.1,-6.5,5.2
COc1ccc(S(=O)(=O)n2[nH]c(=O)c(CCO)c2C)c([N+](=O)[O-])c1,x,0.666,40.3,x,0.0,-1.5,7.5,-17.8,-2.8,1.3
Cc1ccc(C2N=C(N)Nc3nc(=O)c4ccccc4n32)cc1 (stereo not given),-4.3,0.681,-4.7,i,-0.4,-5.9,8.5,8.9,2.3,-119.5
Cc1nc(C(=O)N2CCc3c([nH]c4ccccc34)C2c2ccccn2)cs1 (stereo not given),x,0.678,2.2,i,-0.9,1.8,-19.7*,-14.0*,1.1*,4.3
COCCCNC(=S)N1CCN(C)CC1,-4.7,0.663,-3.2,i,0.4,1.9,-10.6,-11.0,-3.5,2.2
O=C(COC(=O)C1C2CC3OC(=O)C1C3C2)Nc1cccc(C(F)(F)F)c1 (stereo not given),-4.2,0.69,4.6,i,-0.1,1.7,6.5,5.3,7.1,4.5
CCOC(=O)N1CCC2(O)CCCCC2C1c1ccc(F)cc1 (stereo not given),x,0.763,-6.3,x,1.0,x,x,x,x,-0.4
O=S(=O)(Nc1nc2ccccc2nc1NCc1ccco1)c1ccc(Cl)cc1,4.5,0.692,-27.0,x,-0.6,x,x,x,x,-6.9
Cc1ccccc1CN1CCN(C(=O)CC(C)C)CC1,4.0,0.678,-9.6,i,1.6,-9.4,11.4,6.4,0.8,5.3
Cc1ccc(S(=O)(=O)NCC(c2ccccc2)N2CCN(CCC#N)CC2)cc1 (stereo not given),-7.4,0.727,8.9,x,-0.2,x,x,x,x,3.2
COc1ccc(C)cc1NC(=O)COC(=O)C1COc2ccccc2O1 (stereo not given),-4.4,0.71,x,i,0.1,-1.0,26.8,17.6,4.8,4.6
CCCCCN(C(=O)COC(=O)c1ccc(C)cc1)c1c(N)n(CCCC)c(=O)[nH]c1=O,-4.2,0.678,x,i,0.1,-2.0,4.0,4.9,0.0,1.5
O=c1[nH]cnc2c1N=C(c1cccc([N+](=O)[O-])c1)CC(c1ccccc1)N2 (stereo not given),2.6,0.722,-19.5,i,2.1,7.8,11.9,6.9,1.5,4.1
NS(=O)(=O)c1cccc(NC(=O)CC23CC4CC(CC(Br)(C4)C2)C3)c1,-20.9,0.649,-1.5,i,0.0,5.3,2.4,5.2,0.2,3.9
CCN1CCN(CCNC(=O)c2ccc3c(c2)N(Cc2cccc(Cl)c2)C(=O)c2ccccc2S3=O)CC1 (stereo not given),-2.5,0.638,34.6,i,1.4,7.8,4.7,1.3,1.0,3.8
CC1CC(C)CN(CCOc2cccc(Cl)c2Cl)C1 (stereo not given),4.0,0.627,25.3,i,-0.3,4.6,-7.2,-11.1,-2.8,5.1
Cn1c(-c2ccccc2)c[n+]2c1CCCCC2,-7.8,0.704,6.3,i,0.3,-0.9,19.6,7.3,-1.1,0.5
CN(C)c1nc(N)nc(CSc2ccccn2)n1,-8.2,0.655,-4.9,x,0.1,x,x,x,x,0.0
O=C(NCCc1ccc(Cl)cc1)Nc1ccc(F)cc1,-3.7,0.706,3.9,i,0.7,-0.6,6.4,12.4,3.9,2.4
Cc1ccc(NC(=O)CSC(C)c2nc3ccccc3c(=O)[nH]2)cc1 (stereo not given),2.8,0.69,-12.0,i,-0.8,-1.7,11.4,7.5,1.3,0.3
COc1ccc(CNC(=O)C(C)NCc2ccc(S(N)(=O)=O)cc2)cc1 (stereo not given),-5.8,0.702,-4.1,i,-1.1,6.3,2.4,6.3,-2.6,-0.6
# Following part.
SMILES,Beta cell apopt,E coli growth,T cruzi repl,FGF22 binding,Bfl-1 A1 inh,AF4-AF9 inh,rRNA inh HTS,rRNA inh HTS OD600,rRNA inh HTS RFP,UCH37 DUB inh
O=C(NCC1CCCO1)c1ccc(OC2CCN(C(=O)C3CC3)CC2)cc1 (stereo not given),x,0.701,-5.9,i,0.8,-1.8,-0.1,5.1,-1.6,1.3
COCCOC(=O)c1c(C)nc(SCC(=O)Nc2ccc(OC)cc2)c(C#N)c1-c1ccco1,9.0,0.71,5.7,x,-0.5,x,x,x,x,1.8
Nc1[nH]c(=S)nc2nc(-c3ccccc3)c(-c3ccccc3)nc12,x,0.717,35.7,i,0.6,-4.0,0.9,0.2,-7.4,2.7
CNc1nc(N)nc(OC(C(F)(F)F)C(F)(F)F)n1,-3.1,0.715,-10.0,i,-0.6,-0.2,13.1,12.4,1.3,4.0
CCN(CC(=O)Nc1cccc(C(C)=O)c1)S(=O)(=O)c1ccccc1,x,0.648,-9.9,x,-0.3,-1.3,6.9,1.2,2.4,0.5
CCNC(=O)NC(=O)C(C)OC(=O)[C@H](C)NS(=O)(=O)c1c(C)c(C)cc(C)c1C (stereo not given in full),-2.1,0.693,3.7,i,0.7,-1.1,-2.5,9.0,1.1,4.4
Cc1ccc(NC(=O)CSc2nnc([C@H](C)NC(=O)OC(C)(C)C)o2)c(C)c1,1.9,0.698,-5.7,i,-0.5,-2.6,-0.2,-10.7,-1.4,4.4
COCCNC(=O)CNC(c1ccccc1)c1ccccc1,1.1,0.67,-1.4,x,-0.2,x,x,x,x,3.8
CC1CN(Cc2ccccc2)C(=O)NC1=O (stereo not given),x,0.651,x,i,x,-0.6,15.8,10.6,4.2,0.2
CCC(C)N(C)Cc1cccc(C2(O)CCN(S(=O)(=O)c3ccc(F)cc3)CC2)c1 (stereo not given),-5.4,0.753,-8.3,x,0.6,x,x,x,x,1.2
C[C@]12c3[nH]c4ccc(Cl)cc4c3CCN1C(=O)[C@@H](CC(=O)NCC13CC4CC(CC(C4)C1)C3)C[C@@H]2C(=O)N1CCOCC1,x,0.712,x,i,x,8.1,-0.2,-3.6,1.6,1.7
O=c1cc(-c2ccc(O)cc2)oc2c([C@@H]3O[C@H](CO)[C@@H](O)[C@H](O)[C@H]3O)c(O)c([C@@H]3O[C@H](CO)[C@@H](O)[C@H](O)[C@H]3O)c(O)c12,-7.6,x,-32.9,i,-0.3,0.7,-3.5,-12.2,4.0,3.0
CC(=O)N/C(=C\c1ccccc1)C(=O)OCC(=O)N(C)C1CCS(=O)(=O)C1 (stereo not given),-11.9,0.701,x,i,1.4,0.6,x,x,x,0.2
Cc1nc2ccc(-c3nc4ccc(N)cc4[nH]3)cc2[nH]1,38.4,0.674,-3.0,x,0.9,8.7,-14.3,-4.7,-3.3,i
Cc1ccccc1C(=O)NC1CC2CCCC(C1)N2Cc1ccccc1 (stereo not given),x,0.681,11.2,i,0.2,-0.4,10.1,9.6,-2.0,1.6
COc1ccc(C(=O)NNC(=O)c2cccc(S(=O)(=O)N3CCOCC3)c2)cc1,0.5,0.674,x,i,0.3,-6.6,-1.7,8.0,0.6,4.4
N#Cc1c(NCCN)nc(-c2ccco2)c2c1CCCC2,16.4,0.699,8.0,x,-0.3,x,x,x,x,-169.9
CC1(C)COC(c2cccn2Cc2ccccc2Cl)=N1,-0.8,0.695,-16.4,x,0.0,x,x,x,x,2.0
Cc1ccc(Cn2nc(C)cc2C(=O)Nc2ccc(Cl)cc2)cc1,6.3,0.665,27.3,i,0.0,x,-3.1,7.4,0.4,4.6
CCCCCc1nc2c(=O)n(C)c3ccccc3c2o1,0.8,0.683,24.3,x,0.6,x,x,x,x,5.0
O=C(Nc1ccc(F)c(Cl)c1)c1ccc2c(=O)n3c(nc2c1)CCCCC3,1.0,0.729,33.3,x,-3.1,x,x,x,x,-1.3
COc1ccc(CNC(=O)C2CCN(S(=O)(=O)N3CCCCC3)CC2)cc1,-0.1,0.668,-18.7,i,0.2,-1.3,0.2,6.9,-1.0,4.2
CN1CCN(C(=O)CN(c2cccc(Br)c2)S(=O)(=O)c2ccccc2)CC1,-10.5,0.673,-7.7,i,-1.3,0.6,1.2,-2.1,-4.7,0.5
Cc1ccc(S(=O)(=O)N(c2ccc(Br)cc2)C2C=CS(=O)(=O)C2)cc1 (stereo not given),-6.1,0.705,x,i,0.6,-0.5,1.6,-1.8,-2.0,3.0
CCOC(=O)C1CCN(C(=O)CN(c2ccc(OC)cc2)S(=O)(=O)c2c(C)noc2C)CC1,-2.5,0.689,-5.2,i,0.8,-0.8,5.0,19.2,16.9,2.5
# Next part
SMILES,Beta cell apopt,E coli growth,T cruzi repl,FGF22 binding,Bfl-1 A1 inh,AF4-AF9 inh,rRNA inh HTS,rRNA inh HTS OD600,rRNA inh HTS RFP,UCH37 DUB inh
COc1ccc(NCC(=O)n2c(C)c(C)c3ccccc32)cc1OC,-0.7,0.703,18.6,i,0.3,4.6,6.3,-3.8,2.6,4.6
O=C(COC(=O)c1ccc(O)cc1O)c1ccc2c(c1)OCO2,x,0.678,0.0,i,0.6,-1.1,-4.7,-0.9,0.0,0.2
COC(=O)Cn1nc(C)c2ccccc2c1=O,-4.7,0.735,-2.8,x,0.4,x,x,x,x,0.1
CCOC(=O)Cn1c2c(c(-c3ccccc3OC)cc1=O)CCCC2,3.1,0.659,9.0,x,0.8,x,x,x,x,0.5
Cc1cc(C)c(S(=O)(=O)n2nc(C)c(Br)c2C)c(C)c1,-2.8,0.715,-0.3,x,1.0,x,x,x,x,3.1
Nc1c(SCCC(=O)O)ccc2c1C(=O)c1ccccc1C2=O,12.2,0.657,4.9,i,-7.8,2.2,-19.2,-56.0,33.0,12.1
COc1ccc(C(=O)CSc2nnnn2Cc2ccccc2)cc1,-5.1,0.638,-11.5,x,-0.8,x,x,x,x,0.1
OCCCNc1cc(-c2ccccc2)nc2cc(-c3ccc(F)cc3)nn12,17.7,0.678,19.2,i,1.1,-13.1,-13.2,-12.9,5.0,-162.7
Cc1c(CNC(=O)C2CC2)c(-n2cccc2)n(Cc2ccccc2)c1C,7.7,0.654,-4.8,i,1.5,1.1,10.9,3.2,-2.8,4.3
O=C1CC(N(C(=O)c2ccco2)c2ccc(F)cc2)C(=O)N1c1ccc(F)cc1 (stereo not given),-2.9,0.685,-19.0,x,0.4,x,x,x,x,3.8
C[C@H](NC(=O)C1CCN(S(=O)(=O)c2ccccc2)CC1)C(=O)NCc1ccccn1,-4.4,0.691,-6.0,i,0.3,-1.6,13.2,9.8,-1.4,3.9
c1coc(Cn2c(-c3ccco3)nc3ccccc32)c1,-1.5,0.671,-8.8,x,0.6,x,x,x,x,-3.7
C=CCn1c(SCc2ccccc2Cl)nnc1-c1sc2nc(C)cc(C)c2c1N,2.4,0.696,62.8*,i,-3.2,-7.5,-8.1,-5.4,3.2,-139.5

# Screening data: PubChem, several laboratories

# This is a subset, so the mix of outcomes need not match the whole.
